Autofluor counter – counter-screen for toxin protease inhibitors: compound fluorescence; compound autofluorescence counterscreen, microsphere flow cytometry; hits give high values; fluorescence intensity (test concentration not listed); actives 3.1% (n = 360,000); AID 624483;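 active means at least 3 SD above the mean of all compounds, about 16000 in these data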;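 further: 100 nL of 1 mM stock went into each well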
BJeLR lethal – MLPCN primary cell-based screen for lethality selective to Ras in HRASV12 cells; inhibition, % (concentration not given with the values); AID 1554, 2009; actives 0.17% (n = 300,000); BJeLR (HRASV12) viability, CellTiter-Glo ATP luminescence, 48 h; reference of the scale not given here;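 active means replicate mean above 50%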;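 further: 50 nL library stock added to about 25 µL; numbers are from one replicate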
Mtb hypoxia rep – PubChem AID 1159583. M. tuberculosis hypoxia-regulated fluorescent reporter, fluorescence. fluorescence inhibition, % (concentration not given with the values). actives 0.1% (n = 300,000);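 active means 35 to 45% if threefold the growth effect, above 45% if 1.5-fold the growth effect; inactive means the rest, general growth blockers included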;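 further: wells of about 50 µL received 100 nL stock; 0% = vehicle wells and 100% = reference inhibitor wells; whole bacteria with a GFP reporter of the hypoxia response; strong numbers were not always called active; many hits fall short of the cut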
RN4220 kill – growth inhibition of S. aureus RN4220, primary screen, OD600 | 16 h | inhibition, % (no concentration beside the values) | actives 0.33% (n = 330,000) | AID 1259311, 2017;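 active means z-score of -3 or lower and OD600 up to 0.18 on both plates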;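 further: plate controls were untreated cells for no effect and reference antibiotic for full effect; stock transfer was 100 nL into about 80 µL; one replicate is shown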
ugtP null kill – growth inhibition of ugtP-null S. aureus, primary screen, RN4220 ugtP deletion, OD600. 16 h; some inactives read as strong as hits. growth inhibition, % (concentration not given with the values). actives 0.54% (n = 330,000);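 active means z-score under -3 and OD600 up to 0.15 on both plates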;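 further: plate controls were untreated wells for no effect and antibiotic for full effect; wells of about 80 µL received 100 nL stock; the first replicate is given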
PrP UTR inh – inhibition of PrP 5' UTR reporter expression. cell-based PrP 5' UTR mRNA reporter, plate reader. inhibition, % (no concentration beside the values). actives 0.35% (n = 340,000);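 active means every replicate at 50% or more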;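 further: 0 = median of the neutral control wells; tested in H4 reporter cells; numbers are from one replicate; inactives centre near -14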
Mtb hypoxia rep growth – further read-out of Mtb hypoxia rep, marked with its call; growth inhibition, %; measured here: M. tuberculosis growth (absorbance);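 0% = vehicle and 100% = reference antibiotic; read after six days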
* = called active by the depositor; nt = not tested or not shown; & = joins results of further samples.

No.	smiles	RN4220 kill	ugtP null kill	Autofluor counter	Mtb hypoxia rep growth
1	O=C(NC1CCS(=O)(=O)C1)c1c(NC(=O)C2COc3ccccc3O2)sc2c1CCCC2 (stereo unspecified)	-4.6	-14.4	2139	nt
2	C=CCOC(=O)CN1C(=O)c2ccccc2C1=O	4.4	-4.1	9450	5.9
3	Cc1ccc(-c2ccc(NC(=O)C3C4C=CC(C4)C3C(=O)O)cc2)o1 (stereo unspecified)	2.1	2.2	5287	0.3
4	O=C(N/N=C/c1ccc([N+](=O)[O-])o1)c1ccc2c(c1)OCO2	nt	nt	6691	nt
5	Cn1c(=O)c2cn(-c3ccc4c(c3)OCCO4)cc2n(C)c1=O	0.9	-2.9	4821	nt
6	CC1(c2ccc(Cl)cc2)NC(=O)CS1 (stereo unspecified)	3.9	4.7	2414	3.2
7	CCc1cc(=O)oc2c3c(cc(OCC(=O)NCCCC(=O)O)c12)OC(C)(C)CC3	0.8	-1.4	3937	4.1
8	Cc1ccc(CCNC(=O)C2CCC(=O)N2Cc2ccc(F)cc2)cc1 (stereo unspecified)	4.4	3.7	4033	-3.9
9	O=C(CCl)N(Cc1cc(=O)[nH]c2ccccc12)c1ccccc1	nt	nt	3354	nt
10	O=S(=O)(Nc1cc(S(=O)(=O)N2CCOCC2)ccc1Cl)c1ccccc1	12.9	6.2	5851	2.5
11	C1CN(CCN2CCOCC2)CCN1	-1.2	1.0	4198	-3.0
12	C(=NNc1nncc2ccccc12)c1ccccn1	9.5	0.9	nt	0.2

No.	BJeLR lethal	Mtb hypoxia rep	PrP UTR inh
1	-5.8	nt	-13.7
2	-3.8	0.6	-16.6
3	-0.6	1.7	-23.7
4	-2.1	nt	17.5
5	-7.3	nt	-63.0
6	5.0	-0.8	-13.2
7	9.5	8.8	nt
8	7.0	3.0	-19.4
9	5.2	nt	3.1
10	nt	-1.9	-7.5
11	-6.6	12.9	-33.2
12	nt	10.5	nt

More structures follow.
No.	smiles	RN4220 kill	ugtP null kill	Autofluor counter	Mtb hypoxia rep growth
13	CCCCn1c2ccccc2c2cc(CC(N)=O)ccc21	17.5	24.8	3586	12.4
14	COc1cc(/C=C2\C(=O)N(CCC#N)N=C2C)ccc1OCC(=O)Nc1ccccc1	nt	nt	8397	nt
15	C[C@H](CO)N1C[C@H](C)[C@@H](CN(C)C(=O)Nc2ccccc2)Oc2ccc(NC(=O)CCN3CCOCC3)cc2C1=O	2.2	2.7	3776	1.5
16	O=C(NC(=S)Nc1ccccc1F)C1CCCCC1	nt	nt	6636	nt
17	CS(=O)(=O)NN1C(=O)c2ccccc2NC1c1c[nH]c2ccccc12 (stereo unspecified)	2.4	0.3	6814	4.1
18	CO/N=C/C1CCN(c2ncc(C(F)(F)F)cc2Cl)C1=O (stereo unspecified)	nt	nt	2571	nt
19	CCn1c(CC(=O)Nc2ccccc2F)nnc1SCC(=O)N1CCN(c2ccccc2)CC1	-7.7	3.5	3440	4.3
20	O=C(c1cccc(N2C(=O)C3CC=CCC3C2=O)c1)N1CCN(c2ccccc2)CC1 (stereo unspecified)	2.6	-2.3	10353	7.0
21	O=C(CSc1ncccn1)Nc1ccc2[nH]c(=O)[nH]c2c1	1.8	2.0	nt	-1.0
22	O=C(Oc1ccc(OC(=O)c2ccco2)c(S(=O)(=O)c2ccc(Br)cc2)c1)c1ccco1	nt	nt	8866	nt
23	CCOc1ccc(C=NCC(O)c2ccccc2)cc1 (stereo unspecified)	3.1	-6.2	3977	16.6
24	O=Cc1c(NCCCN2CCCC2=O)c2ccccc2[nH]c1=O	-1.2	5.6	3941	8.5

No.	BJeLR lethal	Mtb hypoxia rep	PrP UTR inh
13	-6.4	17.1	-19.4
14	2.8	nt	-83.5
15	nt	2.9	-19.4
16	-0.3	nt	-15.4
17	-6.9	10.1	-26.0
18	-0.2	nt	-29.7
19	-0.3	3.5	-18.7
20	nt	1.1	-8.8
21	1.3	0.4	-9.2
22	2.7	nt	-16.2
23	2.3	9.9	-1.2
24	-2.1	-0.2	-6.5

(continued)
No.	smiles	RN4220 kill	ugtP null kill	Autofluor counter	Mtb hypoxia rep growth
25	O=C(N/N=C/c1cn(-c2ccccc2)nc1-c1cccs1)c1ccncc1	nt	nt	2674	nt
26	COc1ccc(C(C)=O)c(OC(=O)c2ccc(OC)c(OC)c2)c1	-1.7	-2.8	5347	4.8
27	CC(C)(OC(=O)c1ccc(F)cc1)c1cc2ccccc2c(=O)o1	7.1	5.3	3456	6.3
28	Cc1nnc2sc(-c3ccc(NC(=O)c4ccc(-c5ccc(Cl)cc5Cl)o4)cc3)nn12	3.7	-10.7	9334	3.6
29	CN(C)C(=O)c1c([N+](=O)[O-])c(C(C)(C)C)nn1C	7.4	0.9	8461	-4.4
30	Brc1ccc(NC2=Nc3ccccc3CC2)cc1	-1.1	-8.3	3200	-1.2
31	O=C(NCCCn1ccnc1)c1cc(Br)c(Br)s1	-0.4	3.0	3630	-7.3
32	Cc1nc(C)c(C(=O)NCc2ccccc2Cl)o1	4.7	-1.8	10760	5.4
33	COc1cc(/C=N/Nc2nc(C)cc(=O)[nH]2)ccc1OC(=O)c1cccnc1	nt	nt	4289	nt
34	COc1cccc(C(=O)NCC(c2ccco2)N2CCc3ccccc3C2)c1 (stereo unspecified)	1.1	4.4	5941	-1.8
35	COc1cc(C(=O)Oc2cccc(C(=S)N3CCOCC3)c2)cc(OC)c1OC	1.4	6.3	4597	4.4
36	Nc1cc(C(=O)N2CCN(c3ccc([N+](=O)[O-])cc3)CC2)ccc1N1CC2CC(C1)c1cccc(=O)n1C2 (stereo unspecified)	-1.3	-2.1	5579	10.8

No.	BJeLR lethal	Mtb hypoxia rep	PrP UTR inh
25	0.1	nt	-30.7
26	-1.2	4.9	-22.7
27	nt	7.0	-35.5
28	-2.1	10.5	-9.3
29	-1.7	0.6	-16.2
30	1.4	-7.0	-88.4
31	-7.4	6.3	-15.2
32	7.4	13.2	-17.8
33	2.0	nt	-31.4
34	11.2	9.6	-74.1
35	-8.0	7.5	-0.7
36	7.7	4.8	1.8

(next part)
No.	smiles	RN4220 kill	ugtP null kill	Autofluor counter	Mtb hypoxia rep growth
37	CCOc1ccccc1N1CCN(C(=O)C(Sc2ccccc2)c2ccccc2)CC1 (stereo unspecified)	3.6	5.6	3021	5.8
38	Cc1cccc(CSCCNC(=S)Nc2ccccc2)c1	11.4	-5.1	1982	9.6
39	CN(C)c1nc(-c2ccccc2)ncc1S(=O)(=O)c1ccccc1	9.7	4.0	4236	11.2
40	CCOC(=O)C1CSc2[nH]c(=O)sc2C1c1ccccc1 (stereo unspecified)	3.1	16.3	3621	10.1
41	COc1ccc(C(=O)Nc2nc(CC(=O)NCCc3ccccc3OC)cs2)cc1	3.3	6.2	5245	6.4
42	Clc1ccc(Cl)c(OCCN2CCCC2)c1	1.5	4.4	3790	-4.0
43	Nc1sccc1C(=O)c1ccc(Cl)cc1	0.3	-2.4	5660	3.8
44	COc1ccc(CN2CCCC(C(=O)c3sccc3C)C2)cc1O (stereo unspecified)	-2.2	4.2	4256	11.3
45	N#C/C(=C\c1cccs1)C(=O)Nc1ccccn1	2.9	12.4	4175	-5.5
46	Cc1ccc(NC(=O)c2ccc(CSc3nnnn3C)cc2)cc1	19.5	6.2	2489	6.7
47	COc1ccc(C2CC(=O)Nc3cc(C)c(C)cc32)c(OC)c1OC (stereo unspecified)	-0.7	-12.6	4779	nt
48	N#C/C(=C\c1cccc(Oc2ccccc2)c1)C(=O)N1CCOCC1	2.3	6.2	4581	5.0

No.	BJeLR lethal	Mtb hypoxia rep	PrP UTR inh
37	-2.1	4.4	-7.6
38	0.0	5.4	-7.9
39	-3.0	16.2	2.7
40	-8.4	10.4	-2.1
41	-8.8	6.9	-40.2
42	1.0	9.9	-18.6
43	3.4	5.6	-31.3
44	15.0	-1.6	-13.6
45	-15.8	-0.6	-63.4
46	-8.8	5.1	-83.0
47	-0.3	nt	-90.6
48	-0.4	6.8	-15.7

Further structures
No.	smiles	RN4220 kill	ugtP null kill	Autofluor counter	Mtb hypoxia rep growth
49	COc1cc(CNC(=O)CCCCC=CC(C)C)ccc1O	1.5&5.5	5.0&5.2	nt	0.3&2.6
50	CC(C)NC(=O)COC(=O)c1ccc(NS(=O)(=O)c2ccc3c(c2)OCCO3)cc1	3.0	7.9	4556	-2.2
51	Cc1cc(C)cc(NS(=O)(=O)c2coc(C(N)=O)c2)c1	4.0	4.1	6159	nt
52	CC(=O)Nc1ccc2c(c1)nc(C)n2-c1ccccc1	3.2	7.0	4097	6.5
53	C=CCn1c(C)cc(C(=O)COC(=O)/C=C/c2cccc(OC)c2)c1C	1.7	5.6	4753	5.9
54	CC(=O)Nc1ccc(C(=O)Nc2cc(C)on2)cc1	1.2	3.5	3399	6.6
55	COC(=O)c1cc(Br)c(=O)n(Cc2cccnc2)c1	-7.2	5.7	2573	1.0
56	COC(=O)c1ccc(CNC(=O)c2ccc(OC)c(S(=O)(=O)NC3CCCC3)c2)cc1	-3.5	-3.6	4002	-12.8
57	CCOc1ccc(NS(=O)(=O)c2ccc(C(=O)N3CCCCC3)cc2)cc1	-0.2	-2.8	6128	7.4
58	CCN(C[C@H]1N[C@@](CC)(C(=O)OC)[C@H]2C(=O)N(C)C(=O)[C@@H]12)C(=O)COC	-0.8	7.0	3764	0.1
59	CC(C)n1ncc2c(C(=O)N3CCN(Cc4ccc(Br)s4)CC3)cc(C3CC3)nc21	-6.7	3.9	4015	2.4
60	Cc1ccc(N(CC(=O)Nc2ccccc2C(=O)NCc2ccco2)S(=O)(=O)c2ccccc2)cc1C	-1.1	-17.5	2786	nt

No.	BJeLR lethal	Mtb hypoxia rep	PrP UTR inh
49	nt	-0.1&1.6	nt
50	-4.8	5.1	-1.3
51	-6.2	nt	9.9
52	9.1	5.4	-8.3
53	3.0	2.7	1.7
54	-0.9	-4.1	0.0
55	5.0	3.6	-11.8
56	nt	-2.9	-15.7
57	0.7	4.8	-13.7
58	nt	3.9	-26.9
59	nt	0.1	1.5
60	0.4	nt	-10.2

Carrying on.
No.	smiles	RN4220 kill	ugtP null kill	Autofluor counter	Mtb hypoxia rep growth
61	COc1cc(NC(=O)CN2C(=O)C(c3ccccc3)=NC2(C)C)cc(OC)c1	-2.1	-5.6	4249	8.2
62	Cc1ccc(S(=O)(=O)N2CCN(C(=O)CNC(=O)c3ccc(Br)o3)CC2)cc1	4.3	10.2	3553	0.0
63	CCN1CCN(C(=O)c2ccc3c(c2)N(Cc2ccccc2F)C(=O)c2ccccc2S3(=O)=O)CC1	1.2	1.8	4381	-4.6
64	COC(=O)c1ccc(-n2c(C)cc(C=NNc3nc(C)cc(=O)[nH]3)c2C)cc1	2.2	4.7	nt	6.6
65	Cc1nc(N(C)C)c2sc(=S)n(-c3ccccc3)c2n1	1.5	5.5	2556	2.0
66	O=C(c1ccsc1)N1CCN(C(=O)c2cccs2)CC1	4.0	6.3	2402	9.4
67	C=CC(=O)N(CCC)C(c1ccccc1)c1ccccc1OC (stereo unspecified)	1.6	2.7	4157	4.0
68	COc1ccc2[nH]c(C(=O)Nc3ccc(F)cc3Br)cc2c1	1.3	-3.2	3100	15.4
69	COc1cccc(CNC(=O)CSc2nnc3c(n2)[nH]c2ccc(C)cc23)c1	3.2	-0.7	3861	3.1
70	C/C(Nc1ccccc1C(F)(F)F)=C1/CCOC1=O	7.5	2.3	3864	11.7

No.	BJeLR lethal	Mtb hypoxia rep	PrP UTR inh
61	5.0	-2.7	-30.5
62	8.4	-0.2	4.4
63	0.1	5.0	0.7
64	nt	1.4	nt
65	4.3	7.6	-12.7
66	-3.3	11.6	-5.6
67	4.8	6.8	-15.0
68	-9.9	7.1	-18.1
69	3.1	-1.3	-5.0
70	-0.2	1.3	-7.4

4 compounds from above, reduced to RN4220 kill, BJeLR lethal and PrP UTR inh:
nr	structure	RN4220 kill	BJeLR lethal	PrP UTR inh
64	COC(=O)c1ccc(-n2c(C)cc(C=NNc3nc(C)cc(=O)[nH]3)c2C)cc1	2.2	nt	nt
65	Cc1nc(N(C)C)c2sc(=S)n(-c3ccccc3)c2n1	1.5	4.3	-12.7
66	O=C(c1ccsc1)N1CCN(C(=O)c2cccs2)CC1	4.0	-3.3	-5.6
67	C=CC(=O)N(CCC)C(c1ccccc1)c1ccccc1OC (stereo unspecified)	1.6	4.8	-15.0

From no. 69 to 70, copied from above:
No.	smiles	RN4220 kill	ugtP null kill	Autofluor counter	Mtb hypoxia rep growth
69	COc1cccc(CNC(=O)CSc2nnc3c(n2)[nH]c2ccc(C)cc23)c1	3.2	-0.7	3861	3.1
70	C/C(Nc1ccccc1C(F)(F)F)=C1/CCOC1=O	7.5	2.3	3864	11.7

No.	BJeLR lethal	Mtb hypoxia rep	PrP UTR inh
69	3.1	-1.3	-5.0
70	-0.2	1.3	-7.4
